StopGo reporter: FMDV 2A StopGo reporter, luciferase signal. human cells with a luciferase reporter of 2A StopGo recoding; control for the full effect not named in the record. 410,000 compounds, 1.2% hits. Potency, µM (top dose mostly 57.9 µM), without a hit: at the top dose signal change, negative = less light; active = well fitted falling curve with a large enough effect; inconclusive = small, poorly fitted or top-dose-only effect; inactive = no such curve, though single readings can be large or run the other way; tested in HEK293T cells; further: on the % scale 0 is the no-effect control and ±100 the full control effect; nearly all actives have a fitted effect of over 45% in size; luciferase light after 4 h
SARS PLpro yeast: SARS-CoV PLP inhibition in yeast. 330,000 compounds, 0.19% hits. S. cerevisiae expressing SARS-CoV PLpro, growth rescue; control for the full effect not named in the record. Potency, µM (series often up to 32.9 µM), inactives show at the top dose activity, positive = growth rescue; active means well fitted rising curve with a large enough effect; inconclusive means small, poorly fitted or top-dose-only effect; inactive means no such curve, though single readings can be large or run the other way; further: 0% is about no effect; nearly all actives have a fitted effect of over 55% in size; growth read by luminescence after 48 h
Cruzain noTriton: inhibitors of Trypanosoma cruzi cruzain without detergent; P25779; purified cruzain, Z-FR-AMC fluorescence, no detergent; Potency, µM, for inactives: max response, negative = inhibition, most hits filed as inhibitors; 200,000 compounds, 2.3% hits; AID 1476;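 further: plate controls were enzyme without inhibitor for no effect and buffer without enzyme for full effect; nearly all actives have a fitted effect of over 40% in size; top concentration of the series not given in the record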
Target sequence (P25779 123-467 limits assumed): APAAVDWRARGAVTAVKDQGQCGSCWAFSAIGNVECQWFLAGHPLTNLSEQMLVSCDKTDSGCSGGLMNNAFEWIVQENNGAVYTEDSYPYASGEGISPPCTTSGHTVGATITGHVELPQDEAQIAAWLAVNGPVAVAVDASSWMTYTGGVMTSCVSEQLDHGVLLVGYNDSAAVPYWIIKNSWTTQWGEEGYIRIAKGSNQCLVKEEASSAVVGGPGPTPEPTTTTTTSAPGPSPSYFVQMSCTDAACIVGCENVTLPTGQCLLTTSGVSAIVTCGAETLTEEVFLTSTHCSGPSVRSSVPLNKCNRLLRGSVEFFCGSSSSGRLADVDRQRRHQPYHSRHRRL
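Detergent-free condition (0.00005% Triton X-100) in acetate buffer pH 5.5 with DTT. 1.5 nM enzyme and compound were pre-mixed 15 min, then 2 uM Z-FR-AMC substrate added; reaction progress from fluorescence change between first and third reads (60 s).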
RE007 growth inh: less growth of the S. pombe RE007 Vpr strain | 360,000 compounds, 0.21% hits | S. pombe RE007 Vpr strain, BacTiter-Glo ATP luminescence, 24 h; control for the full effect not named in the record | Potency, µM (titrated, usually from 92.2 µM), for inactives: at the highest dose activity change, negative = less growth; active = well fitted falling curve with a large enough effect; inconclusive = small, poorly fitted or top-dose-only effect; inactive = no such curve, though single readings can be large or run the other way;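 further: on the % scale 0 is the no-effect control and ±100 the full control effect; nearly all actives have a fitted effect of over 50% in size; the assay follows cell death caused by Vpr and the record does not say whether a fall means rescue or toxicity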
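Fission yeast RE007 carrying one integrated HIV-1 vpr copy, seeded at OD 0.01 in PMG+AL medium with 23 nL pinned compound. Grown 24 h at 30 degrees; viability read by BacTiter-Glo luminescence after 5 min.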
NS1 inh: influenza NS1 inhibition; S. cerevisiae slowed by influenza A NS1, growth recovery by OD600; Potency, µM (series often up to 46.1 µM), without a hit: top-dose activity, positive = more growth; 270,000 compounds, 0.4% hits; active means well fitted rising curve with a large enough effect; inconclusive means small, poorly fitted or top-dose-only effect; inactive means no such curve, though single readings can be large or run the other way; further: nearly all actives have a fitted effect of over 50% in size
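Compounds were scored for reversing the slow growth caused by influenza A NS1 in S. cerevisiae, measured by optical density at 600 nm. Assay medium contained 2% galactose at pH 6.0; NS1-free yeast of the same strain were the positive control.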
Cruzain Triton: blocks cruzain activity in presence of Triton detergent. Potency, µM, without a hit: max response, negative = inhibition, most hits filed as inhibitors. 200,000 compounds, 0.43% hits. purified cruzain, Z-FR-AMC fluorescence, 0.01% Triton. P25779;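 further: plate controls were neutral wells for no effect and buffer without enzyme for full effect; nearly all actives have a fitted effect of over 40% in size; top concentration of the series not given in the record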
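Purified cruzain (1.5 nM final) was preincubated with compounds for 15 min at room temperature in 100 mM sodium acetate pH 5.5, 5 mM DTT, 0.01% Triton X-100. Reaction started with 2 uM Z-FR-AMC; AMC fluorescence change over 60 s gave activity.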
MARV entry inh: inhibitors of Marburg virus binding or cell entry; Marburg virus pseudotyped entry inhibition, cell reporter; control for the full effect not named in the record; about a third of the inactives were read at about 46 µM; Potency, µM (highest dose often 37.8 µM), inactives show top-dose activity change, negative = inhibition, usual class: inhibitors; 300,000 compounds, 1.8% hits; AID 540276; active = well fitted inhibition curve with a large enough effect; inconclusive = small, poorly fitted or top-dose-only effect, or effect the other way; inactive = flat fitted curve, though single readings scatter; tested in HEK293 cells; about a fifth of its hits are not listed in these tables; further: on the % scale 0 is the no-effect control and ±100 the full control effect; luciferase read-out
LASV entry inh: inhibitors of Lassa virus binding or cell entry; Lassa virus pseudotype entry inhibition, cell reporter; control for the full effect not named in the record; Potency, µM (doses to about 37.9 µM), inactives show top-dose activity change, negative = inhibition, most hits filed as inhibitors; 300,000 compounds, 1.2% hits; active means well fitted inhibition curve with a large enough effect; inconclusive means small, poorly fitted or top-dose-only effect, or effect the other way; inactive means flat fitted curve, though single readings scatter; tested in HEK293 cells; further: on the % scale 0 is the no-effect control and ±100 the full control effect; nearly all actives have a fitted effect of over 50% in size; luciferase read-out
The depositor's hits bear a star; u = inconclusive; x = not tested or not shown; & = joins results of further samples; [ ] = remark or other dose. Unless noted, the call rests on the fitted dose curve; in most records, active means well fitted curve in the direction sought with a large enough effect; inconclusive means small, poorly fitted or top-dose-only effect, or another doubt; inactive means no such curve, though single readings can be large; an effect the other way counts as inactive or inconclusive. Potency means the concentration at half of the fitted maximal effect.

Values run as follows: StopGo reporter, RE007 growth inh, LASV entry inh, MARV entry inh, SARS PLpro yeast, NS1 inh, Cruzain noTriton, Cruzain Triton
O=C(Nc1nc2nc(-c3ccccc3)cc(-c3ccccc3)n2n1)c1ccco1
→ u, 8%, u, u, 0%, -57%, 4%, -7.4%
N#Cc1ccc(NC(=O)CSc2cn[nH]n2)cc1
→ 12%, -19%, 1%[46.1 µM], -4%[46.1 µM], -3%, 2%, x, x
CCn1c(NCc2ccc(OC)cc2)nc2ccccc21
→ 24%&24%, -5%, 2%[46.1 µM], x, 5%, 9%, -9%, 1.1%
CCC(CO)n1c(SCc2cc(=O)oc3cc(C)ccc23)nc2ccccc2c1=O (stereo unspecified)
→ -17%, 12%, -26%, -3%, -14%, -2%, 6%, -3.9%
CC(=O)OC(C(=O)NC1CCCCC1)c1ccc(Cl)c(Cl)c1 (stereo unspecified)
→ 38%[activator], -16%, x, x, 0%, -2%, x, x
Cc1cccc(CN(C)C)c1CC(O)(c1ccccc1)c1ccccc1
→ -22%, -13%, 11%, -21%, x, x, x, x
C/C=C/COc1nc2c(c(=O)n(C)c(=O)n2C)n1C
→ -14%, u, 2%, 0%, 3%, -22%, 2%, 0.1%
CC1CN(c2cc(=O)n(-c3ccc(Cl)cc3)c(=O)[nH]2)CC(C)O1 (stereo unspecified)
→ -11%, -1%, x, x, 0%, 1%, x, x
O=c1[nH]c(-c2ccccc2Cl)nc2c1sc(=S)n2-c1ccccc1
→ -7%, -10%, -15%[46.1 µM], -18%[46.1 µM], 1%, x, x, x
Cc1cc(C)c(S(=O)(=O)NCCc2cc3cc(C)c(C)cc3[nH]c2=O)c(C)c1
→ -4%, x, 0%[46.1 µM], 0%[46.1 µM], x, x, -9%, -2.6%
O=C(CNS(=O)(=O)c1ccccc1)N1CCCC1
→ 0%, 24%, u, u, -2%, x, x, x
COc1ccc(OC)c(S(=O)(=O)Nc2c(F)cccc2F)c1
→ 137%[activator], -12%, 17%, 5%, 1%, 17%, -2%, 3.4%
O=C(NC1=NCCS1)c1cccc(NC(=O)c2ccco2)c1
→ 26%, 1%, 16%, 23%[46.1 µM], -7%, u, -18%, 2.6%
Cc1ccc(CNC(=O)CCn2ccc3cc(S(=O)(=O)N4CCCC4)ccc32)cc1
→ -14%&23%, 3%, -12%[46.1 µM], x, u, 7%, 11%, -4.0%
CCC(NC(=O)c1cccc(Cn2cc([N+](=O)[O-])cn2)c1)c1ccc(C(C)C)cc1 (stereo unspecified)
→ -2%, 7%, -11%, u, -11%, 3%, -9%, -1.3%
O=C(Nc1ccc(Cl)c(S(=O)(=O)N2CCOCC2)c1)c1ccc2c(c1)OCCO2
→ -23%, 2%, u, u, -2%, x, x, x
CCOc1cc(C=O)cc(N=Nc2cccc([N+](=O)[O-])c2)c1O
→ -13%, -19%, -1%[46.1 µM], 1%[46.1 µM], -18%, 15%, x, x
COC1OCC(O)C(OC(=O)c2ccccc2)C1OC(=O)c1ccccc1 (stereo unspecified)
→ -10%, 22%, -22%[46.1 µM], -8%[46.1 µM], x, x, x, x
CCSc1nnc(-c2ccc(S(=O)(=O)NCc3cccs3)cc2)o1
→ 35%[activator], -13%, -13%[14.3 µM], -20%, -1%, -15%, 6%, -2.3%
O=C(Cn1cc(C(=O)c2ccccc2F)c2ccccc21)NC1CC1
→ 10%, 1%, x, 1%[46.1 µM], 0%, -3%, x, x
CCCn1c(CCC(=O)Nc2ccccc2Cc2ccccc2)nc2cc(S(=O)(=O)N3CCOCC3)ccc21
→ -11%, 1%, u, 13µM*, 7%, 6%, u, -5.9%
CCC(C)(C)n1nnnc1C(c1ccc(OC)c(OC)c1)N1CCN(c2ccc(OC)cc2)CC1 (stereo unspecified)
→ -14%, 31%, u, 4%, -1%, -48%, u, 3.8%
CCCC(=O)Nc1ccc2nc(SCC(=O)Nc3ccc(N4CCOCC4)c(Cl)c3)sc2c1
→ u, -1%, u, u, -2%, 4%, 4%, 2.0%
CS(=O)(=O)Cc1ccc(C(=O)NC(c2ccccc2)c2ccccc2)cc1
→ 0%, 8%, -5%[46.1 µM], -12%[46.1 µM], 0%, -11%, x, x
CC(C)OC(=O)CC12CN3CC(CC(=O)OC(C)C)(CN(C1)C(=O)c1ccccc1C3=O)C2=O
→ -3%, 0%, -9%, -3%&-3%, 8%, 1%, u, -1.8%
CCCCc1cc(C(=O)Cc2ccccn2)c(O)cc1O
→ -1%, 11%, x, x, 0%, 3%, x, x
CN(C)/C=C(\C=O)c1cccc(Cl)c1
→ 14%, 1%, -2%, -2%[46.1 µM], 0%, 4%, x, x
CC(C)CN(CCCNC(=O)CN1C(=O)COc2ccc(S(=O)(=O)N3CCCCCC3)cc21)CC(C)C
→ 6%&0%, -9%, 3%&3%[46.1 µM], u, u, -3%, -9%, 7.4%
O=C(NCc1ccc(Cl)cc1)C1CCN(S(=O)(=O)N2CCOCC2)CC1
→ -10%, -4%, 4%, 3%, -1%, x, x, x
CCOC(=O)c1c(S(=O)(=O)NCCc2ccc(OC)c(OC)c2)c(C)n(C)c1C
→ 3%, -1%, x, x, 4%, 4%, x, x
CN1C(=O)c2ccc(Oc3ccccc3)cc2C1=O
→ 5%, -3%, 14%, 14%[46.1 µM], x, x, x, x
Clc1cccc(-c2nnc3n2CCCCC3)c1
→ -6%, -13%, 5%, 0%, 1%, x, x, x
CC(C)(C(=O)N[C@H](CO)c1ccccc1)C(=O)N[C@H](CO)c1ccccc1
→ -11%, -12%, x, x, 21%, 2%, x, x
CCOc1ccc(CCNC(=O)c2cnc3sc(N(CC)CC)nn3c2=O)cc1OCC
→ 0%, x, 1%[46.1 µM], x, x, x, -25%, 11%
CCOC(=O)CSc1nnc(CCc2nc3ccccc3[nH]2)n1C
→ 0%, 5%, -2%, 0%, 8%, 1%, -5%, 0.7%
CCCn1c(=O)c(C(=O)Nc2cccc(C)c2)c(O)c2ccccc21
→ 9%, -5%, x, x, -5%, -6%, x, x
Cc1oc(-c2ccccc2F)nc1CS(=O)(=O)CC(=O)NCCc1ccc(Cl)cc1
→ -18%, x, 3%[46.1 µM], -11%[46.1 µM], x, x, u, 0.1%
CCCOC(=O)C1=C(C)N(C)C(=O)NC1c1cc2c(cc1Br)OCO2 (stereo unspecified)
→ -13%, -3%, x, x, -2%, 15%, x, x
CCCCN1C(=S)SC(C)(C)C1/[N+]([O-])=C/c1cccnc1 (stereo unspecified)
→ -9%, 10%, 0%, -2%[46.1 µM], 0%, 4%, -4%, -4.2%
CNC(=O)c1nnc(Cc2ccc(Cl)cc2)o1
→ -19%, 10%, x, x, 5%, -9%, -5%, 1.0%
COc1ccc(C2=C(C)C(=NCCCN3CCN(c4cc(Cl)ccc4C)CC3)NS2(=O)=O)cc1
→ u, x, 2%[46.1 µM], -10%[46.1 µM], x, x, -1%, -4.9%
Cc1n[nH]c(=O)n1-c1ccc(Oc2ccccc2)cc1
→ -1%, -5%, 8%, 25%, 5%, 3%, 5%, 3.4%
COc1cc(NC(=O)COC(=O)c2cnccn2)c(C)cc1[N+](=O)[O-]
→ -22%, 8%, 10%, 2%[46.1 µM], 0%, 5%, x, x
CN(C)c1ccc(C(=O)N2CC(=O)N(CCc3ccccc3)C(=O)C2)cc1
→ -5%, -26%, -3%, -10%, -12%, u, 11%, -1.5%
CC1(C)CC2CC(C)(CN2/C=N/c2sc3c(c2C#N)CC(C)(C)NC3(C)C)C1 (stereo unspecified)
→ 0%, 23%, u, u, 0%, 3%, x, x
CCC(c1nnnn1Cc1ccco1)N(Cc1ccccc1OC)Cc1cc2cc(C)ccc2[nH]c1=O (stereo unspecified)
→ -22%, 7%, u, u, 0%, -26%, -13%, -8.6%
COc1ccccc1OCCCOc1c(Cl)cc(C)cc1Cl
→ 0%, 2%, 2%, -1%, -13%, -41%, 8%, -5.3%
CC(OC(=O)c1cc2sccc2n1C)C(=O)NCC1CCCO1 (stereo unspecified)
→ -18%, 5%, -18%, 6%, 1%, -6%, 1%, 3.5%
COc1cc(C(=O)Nc2nnc(CC(C)(C)C)s2)cc(OC)c1OC
→ -18%, x, -1%[46.1 µM], 7%[46.1 µM], x, x, u, -5.8%
O=S(=O)(NCCc1csc(-c2ccccc2)n1)c1ccc2c(c1)OCCO2
→ 18%, -19%, 1%, -15%, -14%, -23%, -3%, -6.4%
CCOC(=O)c1c(CN2CCOCC2)n(-c2ccccc2)c2ccc(O)cc12
→ -25%, 15%, -5%, -22%&-22%, 1%, -18%, -4%, -4.0%
CC1(C)C2([N+](=O)[O-])CN3CC1([N+](=O)[O-])CN(C2)C3C(O)C(O)C(O)CO (stereo unspecified)
→ -14%, 13%, 3%, 5%[46.1 µM], 0%, -2%, x, x
O=C(NNC1=Nc2ccccc2SC1)c1ccc(F)cc1
→ 50%[activator], 6%, -18%, u, 0%, 0%, x, x
COc1cccc(C(O)c2nc3ccccc3n2C(C)C)c1 (stereo unspecified)
→ x, 3%, 1%, -19%, -8%, -10%, 3%, 1.1%
Cc1cc(NC(=O)c2c(Br)cnn2C)no1
→ 8%, -4%, 5%[46.1 µM], 21%[46.1 µM], -6%, -2%, x, x
O=C(COc1ccc(Br)cc1Br)Nc1ccc(S(=O)(=O)Nc2ncccn2)cc1
→ -22%, x, -2%[46.1 µM], x, x, x, 0%, -1.4%
CCOCCCNC(=O)c1ccc2c(c1)OCO2
→ 65%[activator], -2%, 24%, 7%, 0%, -19%, -9%, 3.1%
Nc1nc(SCC(=O)Nc2ccc(Cl)cc2)[nH]c(=O)c1-c1ccccc1
→ -24%, -3%, -8%, 10%[14.2 µM], -3%, x, x, x
O=[N+]([O-])c1ccccc1S(=O)(=O)c1ccccc1
→ -1%, 15%, x, x, -1%, 0%, x, x
O=c1ccc(/C=C/c2ccccc2)nn1Cc1ccc(Cl)cc1Cl
→ 0%, 5%, -2%, -8%[46.1 µM], 1%, 1%, 3%, -12%
Cc1cc(C)n(-c2nc(SCC(=O)NCC3CCCO3)c3c4c(sc3n2)CCCC4)n1 (stereo unspecified)
→ x, x, x, 0%, -1%, -31%, u, -6.3%

Source: PubChem (National Center for Advancing Translational Sciences (NCATS))
